Screens: PubChem, several laboratories
GALR2 ag – activates the human galanin receptor 2; activation, %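 (tested at 5 µM)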; O43603; AID 803; GALR2-expressing cells, agonist activation read-out; 0.48% of 140,000 active;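 active means above mean plus 3 SD of all compounds, about 5% in these data, not always enough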;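 further: 0% = vehicle buffer wells and 100% = reference agonist at full effect; tested in CHO reporter cells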
HSV augment – increases HSV replication in cells. HSV replication augmentation in cells, fold increase. maximum fold increase. 0.005% of 220,000 active;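 active means peak rise of 1.5-fold or more in the series; inconclusive means self-fluorescent or not available for retest; tested in PC3 cells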;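 further: first round at 10 µM; read as green reporter fluorescence; hits show the peak of a series up to 25 µM; 1 = signal of infected wells without compound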
RGS16-Gao HTS – modulates binding between human RGS16 and Galphao; binding response (% of control), % at 10 µM; O15492+P09471; 0.38% of 220,000 active; bead-based flow cytometry RGS16-Galphao binding, fluorescence; actives lie on both sides;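 active means below 25% or above 175%, edge rows of some plates excepted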;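 further: Galphao activated by GDP with aluminum fluoride before binding; 100% = wells without compound and 0% = beads without RGS; some results beyond the cut were filed as inactive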
PKD1 inh – inhibitors of human PKD1 kinase; Q15139; PKD1 kinase fluorescence polarization assay; inhibition, %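 (about 10 µM by stock and volumes)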; 0.056% of 200,000 active; AID 797;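 active means inhibition of 50% or more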;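 further: controls were vehicle for no effect and a reference inhibitor for full effect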
Target sequence (Q15139 whole entry, looked up): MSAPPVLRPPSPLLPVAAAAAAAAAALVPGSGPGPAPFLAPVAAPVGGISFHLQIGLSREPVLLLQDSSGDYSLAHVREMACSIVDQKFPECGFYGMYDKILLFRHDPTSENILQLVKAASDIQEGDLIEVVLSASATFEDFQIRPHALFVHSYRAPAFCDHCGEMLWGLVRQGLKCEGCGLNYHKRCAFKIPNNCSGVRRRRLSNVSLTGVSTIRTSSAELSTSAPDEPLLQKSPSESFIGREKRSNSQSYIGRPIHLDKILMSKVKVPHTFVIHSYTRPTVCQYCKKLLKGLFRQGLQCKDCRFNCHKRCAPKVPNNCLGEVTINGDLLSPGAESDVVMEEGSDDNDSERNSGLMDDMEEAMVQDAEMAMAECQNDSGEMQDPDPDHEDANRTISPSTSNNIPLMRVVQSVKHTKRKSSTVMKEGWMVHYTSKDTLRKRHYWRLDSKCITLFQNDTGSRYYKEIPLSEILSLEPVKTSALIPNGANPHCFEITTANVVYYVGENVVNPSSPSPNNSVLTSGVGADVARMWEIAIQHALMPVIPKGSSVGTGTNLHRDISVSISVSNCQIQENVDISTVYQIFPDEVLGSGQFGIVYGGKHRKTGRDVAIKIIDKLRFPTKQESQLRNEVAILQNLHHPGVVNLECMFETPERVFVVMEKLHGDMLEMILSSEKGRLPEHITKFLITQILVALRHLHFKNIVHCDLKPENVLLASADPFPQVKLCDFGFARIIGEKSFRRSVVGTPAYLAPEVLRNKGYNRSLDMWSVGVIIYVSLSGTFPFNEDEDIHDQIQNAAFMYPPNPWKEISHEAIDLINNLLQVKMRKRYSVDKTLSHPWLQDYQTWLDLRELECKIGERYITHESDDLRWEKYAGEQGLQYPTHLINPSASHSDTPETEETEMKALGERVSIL
INS promoter inh – TRM-6 insulin promoter activity inhibition; AID 1273; inhibition, % at 2 µM; TRM-6 cells (human fetal islet line), insulin promoter-eGFP reporter, imaging; reporter expression induced with tamoxifen; 0.9% of 130,000 active;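 active means inhibition above the mean plus 3 SD, with well images judged a real hit on visual review, cut at about 60% in these data, passing the limit was not always enough; inconclusive means inhibition over the cutoff but images rejected on review; inactive means inhibition not above the cutoff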
INS promoter inh cell count – also measured in INS promoter inh; calls as there; normalized cell count, %; measured here: cell count, toxicity; reference of the scale not given here;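 cells exposed to compound for 48 h; stained nuclei by imaging scaled within each plate; lower means fewer cells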
HSV augment primary fold – recorded beside HSV augment, whose call it bears; fold increase; compound at 10 µM; measured here: primary screen fold increase 10 uM; tested in PC3 cells;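 GFP signal in the first replicate; 1 = infected wells without compound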
The depositor's hits bear a star; i = inactive; ? = inconclusive; . = no result given.

Molecule	GALR2 ag	HSV augment	HSV augment primary fold	RGS16-Gao HTS	PKD1 inh	INS promoter inh	INS promoter inh cell count
NS(=O)(=O)c1ccc(N2CCCC2=O)c([N+](=O)[O-])c1	.	i	0.97	104	2	25	102
COC(=O)CN1C(=O)N(c2ccccc2)C(N(O)C(=O)Nc2ccccc2)C1(C)C (centres undefined)	-2.1	.	.	101	-3	-51	56
Cc1nn(-c2ccccc2)c(C)c1C(=O)OCC(=O)NC12CC3CC(CC(C3)C1)C2	-0.4	i	0.94	101	11	0	41
Cc1nc(N)sc1C(=O)N/N=C/c1ccco1	-0.5	i	1	101	4	-82	101
CC(C)CCNC(=O)C(C)N(C(=O)Cn1nnc(-c2ccc(F)cc2)n1)C1CCCC1 (centres undefined)	-1.1	i	0.97	106	3	-73	67
CC1(NC(=O)C2CCCCC2)CCS(=O)(=O)C1 (centres undefined)	.	i	0.95	102	-4	.	.
CCN(CC(=O)NCc1ccc(Cl)cc1)CC(=O)Nc1ccc(C(N)=O)cc1	.	i	0.9	104	6	.	.
COc1ccc(CCc2nnc(CCC(=O)NCc3ccc4ncccc4c3)o2)cc1	.	i	0.92	113	-2	.	.
COc1ccccc1CNC(=O)c1cccc(-c2ccc(C)c3ccccc23)n1	-1.3	.	.	115	-19	40	111
O=C(c1cc(-c2ccco2)on1)N1CCN(c2ccccc2)CC1	-0.6	i	0.91	101	2	.	.
Cc1ccc2oc(-c3ccc(C)c(NC(=S)NC(=O)c4cccs4)c3)nc2c1	0.5	i	1.1	99	18	.	.
O=C(NC(=S)Nc1cc([N+](=O)[O-])ccc1Cl)c1ccccc1	1.1	i	0.87	108	-7	0	102
Cc1oc(C(C)(C)C)c(CN2CCCC2)c1C(=O)O	-2.0	i	1.1	90	-3	23	64
CCOC(=O)C1CSC(CC(=O)Nc2ccc(OCC)cc2)C(=O)N1 (centres undefined)	-2.5	i	1.1	60	2	-142	85
O=C1NC(=S)N/C1=C\c1ccccc1OCc1ccc(C(=O)O)cc1	.	i	0.93	103	.	.	.
O=C1C=C(NCc2ccc3c(c2)OCO3)CC(c2ccccc2)C1 (centres undefined)	.	i	0.88	106	-5	.	.
CN1CCN(C(=O)CCNC(=O)Cn2ccc3ccccc3c2=O)CC1	-2.1	i	1	106	4	-11	109
CCOc1ccccc1NC(=O)CSc1nnnn1-c1ccc(C(=O)OC)cc1	-1.8	i	0.93	106	5	19	91
CCN(CC)C(=O)c1ccc(-c2nnc(OC)c3ccccc23)cc1	.	i	1.1	93	.	.	.
CCC(=NCCc1ccc(OC)c(OC)c1)C1=C(O)CC(C)(C)CC1=O	.	i	0.98	105	-4	.	.

Four of these compounds, set out differently:
SMILES: Cc1oc(C(C)(C)C)c(CN2CCCC2)c1C(=O)O
  GALR2 ag: -2.0; HSV augment: i; HSV augment primary fold: 1.1; RGS16-Gao HTS: 90; PKD1 inh: -3; INS promoter inh: 23; INS promoter inh cell count: 64
SMILES: CCOc1ccccc1NC(=O)CSc1nnnn1-c1ccc(C(=O)OC)cc1
  GALR2 ag: -1.8; HSV augment: i; HSV augment primary fold: 0.93; RGS16-Gao HTS: 106; PKD1 inh: 5; INS promoter inh: 19; INS promoter inh cell count: 91
SMILES: O=C(NC(=S)Nc1cc([N+](=O)[O-])ccc1Cl)c1ccccc1
  GALR2 ag: 1.1; HSV augment: i; HSV augment primary fold: 0.87; RGS16-Gao HTS: 108; PKD1 inh: -7; INS promoter inh: 0; INS promoter inh cell count: 102
SMILES: Cc1ccc2oc(-c3ccc(C)c(NC(=S)NC(=O)c4cccs4)c3)nc2c1
  GALR2 ag: 0.5; HSV augment: i; HSV augment primary fold: 1.1; RGS16-Gao HTS: 99; PKD1 inh: 18; INS promoter inh: .; INS promoter inh cell count: .

Other entries.
Molecule	GALR2 ag	HSV augment	HSV augment primary fold	RGS16-Gao HTS	PKD1 inh	INS promoter inh	INS promoter inh cell count
O=C1CCCCCN1Cc1ccccc1	-0.1	i	0.9	95	-11	5	36
NC(=O)N/N=C/c1ccc(-c2cccc(C(F)(F)F)c2)o1	.	i	0.65	106	-2	0	114
Cc1sc(NC(=O)c2cccs2)c(C(N)=O)c1C	-1.5	i	0.98	89	8	.	.
COc1ccc(Br)cc1C(=O)Nc1ccc(N2CCN(S(C)(=O)=O)CC2)cc1	0.5	i	1	101	-2	-356	27
CCn1c(SCC(=O)Nc2ccc(OC)cc2)nnc1-c1ccco1	-1.5	i	0.88	111	0	-12	80
NCCc1nc(-c2ccccc2)cs1	.	?	.	98	-4	.	.
CCn1nnnc1SCC(=O)c1ccc(C)cc1	0.2	i	0.99	.	1	-44	105
Cc1cc(=O)[nH]c(N/N=C/c2ccc(Br)s2)n1	-0.2	i	0.88	107	-6	0	165
CCCCCCNS(=O)(=O)c1nc2nc(C)cc(C)n2n1	-1.0	i	0.94	100	6	-114	85
Cc1nc2c3ccccc3n(CC#N)c(=O)n2n1	-1.6	i	0.98	98	-8	.	.
Cc1ccc(NC(=O)CNc2ccc(Cl)cc2F)cc1	-1.4	i	1	104	86*	.	.
CCc1ccc(N(C(=O)C(F)(F)F)C(C(=O)NC2CCCCC2)c2ccncc2)cc1 (centres undefined)	-2.9	i	0.97	105	-2	-16	149
O=C(O)c1ccc(N/N=C/c2cccc3cccnc23)cc1	.	i	0.91	102	.	.	.
Cc1ccnc(NC(=O)CCC(=O)N(CC(=O)NC(C)(C)C)c2ccc(F)c(Cl)c2)c1	.	i	0.89	100	-1	.	.
Clc1ccc2nc(-c3ccccn3)c(Nc3ccc4c(c3)OCO4)n2c1	1.0	i	0.72	111	4	-253	50
CCn1c(C)nc2cc(C(=O)NNC(=S)NC(=O)c3ccc(OC)cc3)ccc21	.	i	1	102	9	.	.
Cc1cccc(N2C(=O)CC(Cn3nc(C)cc3C)C2=O)c1 (centres undefined)	.	i	0.9	91	.	.	.
CC(=O)Nc1ccc(NC(=O)C(C)OC(=O)/C=C/c2cnc3ccccc3n2)cc1 (centres undefined)	.	i	0.86	102	.	.	.
COCCCNC(=O)C(=O)C1C(=O)Nc2ccccc21 (centres undefined)	.	i	1.1	100	-5	.	.
C/C(NC(=O)c1cccs1)=C1\C(=O)C[C@@H]2[C@H]1C2(C)C	-0.9	i	0.95	94	9	.	.

A few values from the entries so far.
Reading of Clc1ccc2nc(-c3ccccn3)c(Nc3ccc4c(c3)OCO4)n2c1 under INS promoter inh: -253
Reading of O=C(O)c1ccc(N/N=C/c2cccc3cccnc23)cc1 under HSV augment primary fold: 0.91

The list continues.
Molecule	GALR2 ag	HSV augment	HSV augment primary fold	RGS16-Gao HTS	PKD1 inh	INS promoter inh	INS promoter inh cell count
COc1ccc(OCC(=O)NC(CC(=O)O)c2ccc(OC)c(OC)c2)cc1 (centres undefined)	.	i	0.9	108	-5	5	108
Cc1[nH]n(-c2ccc(Cl)cc2)c(=O)c1C=Nc1ccc(S(=O)(=O)N2CCOCC2)cc1	-0.5	i	1	99	-11	25	80
CCC(NS(=O)(=O)c1ccc(OC)cc1)C(=O)NCCC1=CCCCC1 (centres undefined)	-1.3	i	0.9	88	0	-42	109
O=C(NC1CC1)C1=C[C@@H](c2coc3ccccc3c2=O)C[C@@H](OCc2ccc(CO)cc2)O1	.	i	0.76	93	-4	.	.
[O-]C1=N/[N+](=C/c2ccc(Cl)cc2)CC1	-1.3	i	1	103	-2	0	142
CCCNC(=O)Nc1nc(CC(=O)OCC)cs1	.	i	0.99	101	3	.	.
COc1cc(C(=O)Nc2cc(C(F)(F)F)ccc2-n2cncn2)cc(OC)c1OC	.	i	1.1	98	-1	.	.
CCOC(=O)C1=C(C)NC2=C(C(=O)CCC2)C1c1cccnc1 (centres undefined)	-1.8	i	1.2	98	-10	63	85
O=C(c1ccc(S(=O)(=O)N2CCOCC2)cc1)N1CCN(c2ccc(F)cc2)CC1	-0.7	i	0.95	96	3	50	99
C/C(=N\NC(=S)Nc1cccc(C)c1)c1ccco1	.	i	1	102	10	21	156
Cc1ccc(NC(=O)CCn2ccc([N+](=O)[O-])n2)nc1	-0.6	i	0.95	100	-6	54	125
COc1ccccc1NC(=O)CSc1nnc(Cc2ccccc2)o1	-3.1	i	1.1	102	-6	44	75
CCc1cccc(C)c1NC(=O)CCCC(=O)O	-2.1	i	1	103	5	-1	107
Cc1ccc(SCC(=O)Nc2ccc(C(=O)Nc3ccc(O)cc3)cc2)cc1	.	i	0.96	101	-5	.	.
Cc1ccc(SC(C)C(=O)NCc2ccc(F)cc2)cc1 (centres undefined)	.	i	1.1	101	6	.	.
O=C(CSc1nnnn1C1CCCC1)Nc1ccc(F)cc1	-1.9	i	1.1	108	-9	-29	223
CCC(=O)Nc1ccc(C(=O)Nc2ccc(Br)cc2F)cc1	.	i	0.92	98	5	.	.
Cc1nc2ccc(S(=O)(=O)NC(C(=O)N3CCn4c3nc3ccccc34)C(C)C)cc2s1 (centres undefined)	-2.3	i	0.93	104	-5	.	.
Cc1[nH]n2c(=O)c3c(nc2c1-c1ccccc1)CCC3	-0.7	i	0.99	76	0	83*	119*
COc1cc(OC)c(C#N)c(S(=O)(=O)Cc2ccccc2)c1	-2.3	i	0.94	98	-7	6	71

Two entries from above in a different format:
> CCc1cccc(C)c1NC(=O)CCCC(=O)O
- GALR2 ag: -2.1
- HSV augment: i
- HSV augment primary fold: 1
- RGS16-Gao HTS: 103
- PKD1 inh: 5
- INS promoter inh: -1
- INS promoter inh cell count: 107

> Cc1ccc(SCC(=O)Nc2ccc(C(=O)Nc3ccc(O)cc3)cc2)cc1
- GALR2 ag: .
- HSV augment: i
- HSV augment primary fold: 0.96
- RGS16-Gao HTS: 101
- PKD1 inh: -5
- INS promoter inh: .
- INS promoter inh cell count: .

Next section
Molecule	GALR2 ag	HSV augment	HSV augment primary fold	RGS16-Gao HTS	PKD1 inh	INS promoter inh	INS promoter inh cell count
COc1ccc(S(=O)(=O)NCCSCc2ccco2)cc1C	-0.7	i	0.96	103	1	-306	119
COc1cccc(NC(=O)CN(C)C(C)C(=O)Nc2ccc(C#N)cc2)c1 (centres undefined)	.	i	0.91	101	-8	-8	96
O=c1oc2ccccc2c(O)c1/C=C1\C=Nc2ccccc21	-1.4	i	0.94	103	-6	28	104
CCn1cc(CN2CCc3c([nH]c4ccccc34)C2c2cccc(OC)c2)c(C)n1 (centres undefined)	.	i	0.93	103	-4	.	.
Cc1ccc(C(=O)N2CCN(C(=O)c3ccco3)CC2)cc1NC(=O)c1ccco1	.	i	0.99	95	2	-5	97
CC1C2CC(C(S(=O)(=O)N3CCOCC3)C2=O)C1(C)C (centres undefined)	-2.5	i	1.1	101	-9	-7	119
Cc1cccc(S(=O)(=O)NNC(=O)Cc2cccn2C)c1	.	i	0.93	96	-7	.	.
CS(=O)(=O)C1=NSC2=NC(=O)/C(=C\c3cccn3-c3ccccc3Cl)C(=N)N21	.	i	0.98	98	-1	33	86
Cc1cc(O)c(C(C[N+](=O)[O-])c2ccc(Cl)cc2Cl)c(=O)o1 (centres undefined)	-2.0	i	1.1	101	-2	43	55
CNC(=O)C(C)NS(=O)(=O)c1ccc(F)cc1 (centres undefined)	-0.9	i	1.2	101	-1	-18	97
COc1ccc(NC(=O)CN2CCc3ccccc3C2)cc1OC	.	i	0.97	101	-8	.	.
CCOc1ccc(NC(=O)CCS(=O)(=O)c2ccc3c(c2)CCCN3C(=O)CC)cc1	-0.6	i	0.95	103	-3	.	.
